Screens deposited in PubChem by National Center for Advancing Translational Sciences (NCATS).
VACV mCherry inh: vaccinia inhibition (mCherry reporter). Vaccinia virus mCherry reporter infection, fluorescence; about a quarter of the inactives have no number. hit rate 0.63% among 310,000. Potency, µM (highest dose often 36.5 µM), inactives show at the highest dose activity change, negative = inhibition, actives largely listed as inhibitors; active = well fitted inhibition curve with a large enough effect; inconclusive = small, poorly fitted or top-dose-only effect; inactive = no such curve, though single readings can be large or run the other way; tested in A549 cells; also: nearly all actives have a fitted effect of over 35% in size; inactives centre near -10
VACV Venus inh: vaccinia inhibition (Venus reporter); Potency, µM (titrated, usually from 36.5 µM), without a hit: top-dose activity change, negative = inhibition, most hits filed as inhibitors; hit rate 0.46% among 330,000; AID 720580; Vaccinia virus Venus reporter expression, fluorescence; active means well fitted inhibition curve with a large enough effect; inconclusive means small, poorly fitted or top-dose-only effect; inactive means no such curve, though single readings can be large or run the other way; tested in A549 cells; also: nearly all actives have a fitted effect of over 30% in size; inactives centre near -10
Starred values were filed as active, the others as inactive; i = inactive; ? = inconclusive; · = not tested or not shown; & = joins results of further samples; [ ] = dose if it differs, or a comment. % is scaled to controls: 0 for no effect and ±100 for the full control effect; potency is read from the fitted curve at half-maximal effect.

SMILES	VACV mCherry inh	VACV Venus inh
COC(=O)Nc1ccc(S(=O)(=O)N2CCC(C(=O)N3CCCC(C)C3)CC2)cc1 (stereo not given)	i	-10.6%
CC(=O)Nc1ccc(NC(=O)c2ccc(CN3CCc4ccccc4C3)cc2)cc1	i	-6.9%
CCOc1ccc(NC(=O)CSc2cn(CC(=O)N3CCOCC3)c3ccccc23)cc1	-3.9%	-7.2%
Cc1cn([C@H]2C[C@H](O)[C@@H](CCC(=O)NCCc3ccc4ccccc4c3)O2)c(=O)[nH]c1=O	22.7%	-3.1%
CCCCNC(=O)OCCSCCS(=O)(=O)c1ccc(Cl)cc1	-14.3%	-13.0%
CCOc1ccccc1CNS(=O)(=O)c1ccc2c(c1)CCCN2C(C)=O	-11.6%	-10.1%
O=C1C(NS(=O)(=O)c2cccs2)=C(N2CCN(c3cccc(C(F)(F)F)c3)CC2)C(=O)c2ccccc21	·	?
CCS(=O)(=O)c1ccc2c(c1)N(S(=O)(=O)c1cccs1)CC(C(=O)O)O2 (stereo not given)	-14.6%	4.5%
O=C(NNc1c2ccccc2nc2ccccc12)C12CC3CC(CC(C3)C1)C2	-23.2%	-2.7%
CCn1c(SCC(=O)Nc2ccc(Br)cc2)nc2sc3c(c2c1=O)CCN(C)C3	-10.0%	-5.5%
CCOC(=O)Cc1csc(NC(=O)c2cccc(Cl)c2)n1	-16.8%	-14.3%
COc1cccc(C(=O)Nc2ccc(-c3nc4ccccc4o3)c(O)c2)c1	?	?
CCCCOc1ccc(C(=O)N/N=C/c2ccc(OCCN3CCCCC3)c(OC)c2)cc1	?	?
COc1ccc(OC)c(NC(=O)CCNS(=O)(=O)c2ccc3c(c2)CC(C)N3C(C)=O)c1 (stereo not given)	i	-7.4%
O=C(NCc1cccnc1)c1ccc(CS(=O)(=O)c2ccc(Br)cc2)o1	-5.1%	-25.2%
O=c1[nH]c(CCl)nc2cc(-c3ccc(F)cc3)sc12	-13.8%	-0.6%
Cc1ccccc1C1=NC(c2ccc(F)cc2F)ON1 (stereo not given)	2.7%	5.4%
COc1cc2nc(CCc3ccccc3)oc(=O)c2cc1OC	-10.7%	10.9%
CN(Cc1cccc(-n2cccn2)c1)C(=O)CCc1nnc(C2CCCCC2)o1	-11.8%	-10.9%
COc1ccc(-n2cnc3ccccc32)cc1	-17.5%	0.0%
FC(F)(F)c1cccc(-c2cc3nc(NC4CCCCC4)ccn3n2)c1	-26.5%	-21.9%
C=CCn1c(SCC(=O)Nc2ccc(F)cc2F)nc2c([nH]c3ccccc32)c1=O	-4.6%	-8.2%
COc1ccc(CNC(=O)CC(NC(N)=O)c2ccccc2Cl)cc1OC (stereo not given)	-4.8%	-9.4%
O=C(O)CN1C(=O)/C(=C\c2cc(Br)ccc2OCc2ccc(Cl)cc2Cl)SC1=S	i	-16.9%
COc1ccc(CCNC(=O)c2ccc(CNS(=O)(=O)c3ccc(C(C)(C)C)cc3)cc2)cc1OC	i	-2.4%
O=C(C/C=N/OCc1c(Cl)cccc1Cl)c1cnc(-c2ccccc2)s1	·	12.8%
CC(NCc1ccc(OCC(N)=O)cc1)C12CC3CC(CC(C3)C1)C2 (stereo not given)	-24.4%	-13.5%
CC(=O)c1nn(-c2ccc(OC(F)(F)F)cc2)nc1Nc1ccc(Cl)cc1	-6.6%	-9.1%
Cc1ccc(CNC(=O)C2CCN(S(=O)(=O)N3CCC(C)CC3)CC2)cc1	-8.5%&-20.2%	-7.9%&-21.6%
CC(C)CC(N)c1csc(Nc2ccc(C(F)(F)F)cn2)n1 (stereo not given)	-19.4%	?
O=C(c1cc2ccccc2o1)N(Cc1nnc(-c2ccccc2Cl)o1)C1CC1	i	-7.3%
CSc1nc2ccc(NC(=O)C3=NN(c4ccccc4)C(=O)CC3)cc2s1	-8.2%	-4.9%
O=C(Cn1nc(-c2cccs2)ccc1=O)Nc1ccc(Br)cc1	-10.7%	-5.0%
COc1ccc(S(=O)(=O)N(CC(=O)N2CCOCC2)c2cc(Cl)ccc2OC)cc1OC	-2.1%	-4.2%
CCOC(=O)c1c(C)[nH]c(C)c1S(=O)(=O)N1CCC(C(=O)NCc2ccc(C)cc2)CC1	-17.5%	-15.0%
Cc1c(S(=O)(=O)c2ccccn2)c(N)n(Cc2ccccc2)c1C	i	24.6%
COc1ccccc1N1CCN(C(=O)CCCn2c(=O)[nH]c3ccsc3c2=O)CC1	-7.4%	-11.9%
Cc1nn(Cc2ccccc2Cl)c(C)c1NC(=O)c1nc2ncccn2n1	-20.4%[1.46 µM]	-11.3%
COc1ccccc1CNC(=O)CSc1nc(-c2ccc(OC)c(OC)c2)cc(C(F)(F)F)n1	i	-19.9%
O=S(=O)(Nc1cccc(-c2ccc3nncn3n2)c1)c1cccc(F)c1	-21.2%	-10.1%
Cc1ccc(CN(C)CC(=O)Nc2cccc([N+](=O)[O-])c2)o1	-6.8%	-3.2%
CC1CCc2c(sc3nnn(CC(=O)Nc4c(C(C)C)cccc4C(C)C)c(=O)c23)C1 (stereo not given)	-11.3%	-4.2%
Cc1ccc(NC(=O)c2ccccc2NC(=O)c2cccs2)cc1	i	-1.7%
COc1ccc(C)cc1NC(=O)c1ccc(OCc2c(C)noc2C)cc1	i	-20.2%
N#C/C(=C/c1cc(Br)cs1)C(=O)NCC1CCCO1 (stereo not given)	·	-9.6%
Nc1nc(-c2ccc3c(c2)CCCC3)cs1	?	?
Cc1ccccc1C(=O)N1CCC(C(=O)NC2CCCCC2)CC1	-12.7%	-3.8%
C/C(Cc1ccccc1)=N\NC(=O)CNC(=O)c1ccc(C(C)(C)C)cc1	i	7.6%
N[C@@H](Cc1ccccc1)C(=O)N1CCC(C(=O)NCC(=O)Nc2ccc(F)cc2)CC1	-24.3%	-9.2%
O=C(CCC(=O)N1CCOc2ccc(Cl)cc21)NCCCN1CCN(c2ccccc2F)CC1	?	-11.1%
CC(=O)c1ccc(OCc2cccc(C(F)(F)F)c2)cc1O	-2.7%	-8.4%
COc1cc(/C=C/C(=O)c2c(O)ccc3c(C)cc(=O)oc23)ccc1O	-3.3%&-23.0%	?
CSc1sc(C(=O)NN)c2c1C1(CCC2)SCCS1	-19.1%	0.0%
Cc1ccc(F)cc1C(=O)N1CCCC(c2cc(C(=O)NCc3ccccc3)no2)C1 (stereo not given)	-15.0%	1.0%
O=C(c1ccco1)N1CCN(C(c2ccc(F)cc2)c2nnnn2CC2CCCO2)CC1 (stereo not given)	·	-10.6%
O=S(=O)(Nc1ccccc1OC(F)F)c1ccc(S(=O)(=O)N2CCCC2)cc1	-17.9%	2.0%
COc1ccccc1Cc1c(-c2ccc(C)cc2)nc2c(C)cc(Br)cn12	10.2%	-17.5%
Cc1cc(C)cc(N2CC(C)(C)C2=O)c1	-0.9%	-4.9%
CCc1nnc(NC(=O)C2CCN(C(=O)NC3CCCCC3)CC2)s1	-18.6%	-6.1%
CCN(CC)C(=O)COc1ccc(/C(C)=N/NC(=O)c2ccccc2O)cc1	-23.8%	3.4%

Additional compounds
SMILES	VACV mCherry inh	VACV Venus inh
CCCCc1nnc(NC(=O)CCSc2ccccc2)s1	-6.8%	-4.5%
CCOc1ncccc1C(=O)N1CCN(c2ccc(C(F)(F)F)cn2)CC1	-16.0%	-15.2%
O=C(NCCC(=O)N1CCN(c2ccccc2F)CC1)c1ccco1	-9.4%	-20.8%
CCOc1ccc(/C=N/NC(=O)c2cccc3ccccc23)c(OCC)c1	-11.8%	-9.7%
COCCNC(=O)C1(C)CCN(Cc2ccc(C(C)C)cc2)C1 (stereo not given)	i	3.1%
CCOC(=O)[C@H]1[C@H]2COc3ccccc3[C@@H]2N2C(=O)CNC(=O)[C@@]12C	i	-17.4%
Cc1ccccc1C1NC(=O)Cc2ccccc21 (stereo not given)	·	-16.3%
COc1ccc(C[C@H]2CN3C(=NC[C@@H]3Cc3ccc(O)cc3)N2C[C@H](C)NC(=O)CCC2CCCCC2)cc1	-29.4%	?
Cc1ccc(N(C(=O)c2snc(C(N)=O)c2N)C(C(=O)NC2CCCC2)c2ccc(C)o2)cc1 (stereo not given)	-11.0%	-9.3%
Cc1ccc(C(=O)c2cn(CC(=O)Nc3ccc4c(c3)OCCO4)c3nc(C)ccc3c2=O)cc1	-12.1%	-18.9%
Cc1ccn2c(-c3csc(NCc4ccccc4)n3)c(C)nc2c1	·	?
COc1cccc(NC(=O)C2(C)CCN2Cc2cccc(OC)c2F)c1 (stereo not given)	18.7%	0.9%
O[C@@H]1C[C@H](c2ccccc2)N(Cc2cccs2)C[C@H]1n1cc(C2CC2)nn1	-3.7%	-23.8%
O=C(NNc1ccccc1Br)C(=O)n1ccc2ccccc21	i	-10.6%
Cc1nc(C)c(-c2csc(Nc3ccc(O)cc3C)n2)s1	1.12µM*	?
O=C(NCC(c1ccco1)N1CCN(c2ccccc2)CC1)C(=O)NC1CCCCC1 (stereo not given)	-12.1%	-1.9%
O=C(NC(c1ccccc1)c1ccccc1)C1CCCN(S(=O)(=O)c2cnc[nH]2)C1 (stereo not given)	i	-5.5%
O=C(NC1CCCCC1)C1CC(O)CN1C(=O)OCc1ccccc1 (stereo not given)	i	-6.0%
O=C(NCC1Cc2cccc(-c3cnccn3)c2O1)c1ccc2c(c1)OCCO2 (stereo not given)	-13.7%	-8.3%
CCN(CC)CC(O)Cn1c(C)c(-c2ccccc2)c2cc([N+](=O)[O-])ccc21 (stereo not given)	-29.5%	?
CCOC(=O)c1cn(CC#N)c2cc(F)c(F)cc2c1=O	-11.0%	-9.4%
O=C(NCc1ccccn1)[C@@H]1CCCN1C(=O)[C@@H]1CCCN1	-1.2%	4.2%
CCOC(=O)c1c(C)c(C)n(Cc2ccc(OC)c(OC)c2)c1C	-12.8%	-24.6%
CC1Cc2nc(SCC(=O)Nc3ccc4c(c3)OCCO4)n(C)c(=O)c2S1 (stereo not given)	-9.3%	-24.3%
CC1C/C(=N/O)C(C)CN1 (stereo not given)	·	-8.7%
COc1ccccc1N1CCN(C(=O)CCC(=O)O)CC1	-3.2%	-10.7%
COC(=O)CSc1nnc(-c2ccc(OC)cc2OC)o1	?	-4.6%
O=C(N/N=C\C=C\c1ccc(Br)cc1)c1ccc2c(c1)OCO2	i	-2.7%
Cc1cc(C)cc(C(O)c2ncc(-c3ccc4ccccc4c3)[nH]2)c1 (stereo not given)	?	?
COCC(=O)N1CCN(c2cccc(Cl)c2)CC1	6.2%	1.6%

Retrieved by structure from the list above, 4 records:
SMILES	VACV mCherry inh	VACV Venus inh
O=c1[nH]c(CCl)nc2cc(-c3ccc(F)cc3)sc12	-13.8%	-0.6%
CCc1nnc(NC(=O)C2CCN(C(=O)NC3CCCCC3)CC2)s1	-18.6%	-6.1%
O[C@@H]1C[C@H](c2ccccc2)N(Cc2cccs2)C[C@H]1n1cc(C2CC2)nn1	-3.7%	-23.8%
Cc1cn([C@H]2C[C@H](O)[C@@H](CCC(=O)NCCc3ccc4ccccc4c3)O2)c(=O)[nH]c1=O	22.7%	-3.1%

Additional compounds.
SMILES	VACV mCherry inh	VACV Venus inh
COc1ccc(Cn2cc(CN3CC(N4CCSCC4)CS3(=O)=O)nn2)cc1 (stereo not given)	-0.3%	-1.9%
Cc1ccc(Nc2nnc(-c3ccccc3N)o2)cc1C	?	9.3%
CN(C)c1cc[n+](Cc2ccccc2)cc1	·	?
COc1ccccc1NC(=S)NC(=O)/C=C/c1ccco1	-13.0%	-3.6%
O=C1[C@H]2[C@@H](c3ccc(F)cc3)N3C(=O)N(c4cccc(F)c4)C(=O)[C@@]3(Cc3ccccc3)[C@H]2C(=O)N1C1CCCCC1	i	-11.3%
COc1ccc(C2C(C(=O)Nc3ccccc3)=C(C)N=C3SCC(=O)N32)cc1 (stereo not given)	i	-13.3%
Cc1cc(C)c(S(=O)(=O)N2CC=C(c3ccccc3)CC2)c(C)c1	-13.8%	-8.0%
CC(C)/C=C1\CCc2c([nH]c3ccccc23)C1=O	-10.0%	-2.8%
COc1ccccc1CCNS(=O)(=O)c1cn(C)nc1C	-0.4%	-13.9%
Cc1ccc2cc(C)c3nnc(SCc4ccc(C(=O)O)cc4)n3c2c1C	-10.4%	-17.7%
Cc1nc2nc[nH]n2c(=O)c1NC(=O)CC12CC3CC(CC(C3)C1)C2	-10.0%	-17.6%&-4.3%
Cc1nc(CN2CCN(C(=O)c3ccc(C(C)(C)C)cc3)CC2)cs1	-16.5%	-20.2%
COc1ccc(S(=O)(=O)n2nc(C)c(S(=O)(=O)N3CCOCC3)c2C)cc1	i[7.34 µM]	0.0%[7.34 µM]
CC1CN(c2cc(=O)n(-c3ccccc3)c(=O)[nH]2)CC(C)O1 (stereo not given)	-18.6%	-1.8%
CC[C@H](C)[C@@H](C(=O)NCCCCCCCCCCC(=O)N1CCN(C(=O)OC(C)(C)C)CC1)n1cc(CCCCCNC(=O)OC(C)(C)C)nn1	?	?
CC(C)(C)N1C(=O)[C@H]2[C@@H](c3ccc(Br)cc3)N3C(=O)N(c4cccc(Br)c4)C(=O)[C@@]3(Cc3ccccc3)[C@H]2C1=O	i	-13.4%
COc1ccc(-c2ccc3oc(-c4ccsc4)c(-c4ccc(OC)cc4)c3c2)cc1	i	-9.1%
